MARV entry inh – qHTS for inhibitors of binding or entry into cells for Marburg Virus; 300,000 compounds, 1.8% hits; Marburg virus pseudotyped entry inhibition, cell reporter; control for the full effect not named in the record; about a third of the inactives were read at about 46 µM; AID 540276, 2011; Potency, µM (doses to about 37.8 µM), inactives show top-dose activity change, negative = inhibition, usual class: inhibitors; active = well fitted inhibition curve with a large enough effect; inconclusive = small, poorly fitted or top-dose-only effect, or effect the other way; inactive = flat fitted curve, though single readings scatter; tested in HEK293 cells; about a fifth of its hits are not listed in these tables; further: on the % scale 0 is the no-effect control and ±100 the full control effect; luciferase read-out
Cruzain inh Det – qHTS Assay for Promiscuous and Specific Inhibitors of Cruzain (with detergent); purified cruzain, Z-FR-AMC fluorescence, 0.01% Triton; Potency, µM, without a hit: max response, negative = inhibition, usual class: inhibitors; 200,000 compounds, 0.43% hits;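 further: plate controls were neutral wells for no effect and buffer without enzyme for full effect; nearly all actives have a fitted effect of over 40% in size; top concentration of the series not given in the record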
Target sequence (P25779 123-467 limits assumed): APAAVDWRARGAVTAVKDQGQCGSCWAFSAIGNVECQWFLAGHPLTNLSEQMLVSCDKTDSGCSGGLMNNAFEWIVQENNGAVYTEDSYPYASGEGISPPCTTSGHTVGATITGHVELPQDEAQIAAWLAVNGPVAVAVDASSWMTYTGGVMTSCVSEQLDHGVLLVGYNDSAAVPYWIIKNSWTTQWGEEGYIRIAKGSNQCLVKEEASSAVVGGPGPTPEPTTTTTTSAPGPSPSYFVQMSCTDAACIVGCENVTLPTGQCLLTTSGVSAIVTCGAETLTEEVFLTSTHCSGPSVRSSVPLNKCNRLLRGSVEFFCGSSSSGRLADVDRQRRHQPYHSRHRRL
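Sodium acetate buffer (100 mM, pH 5.5) containing 5 mM DTT and 0.01% Triton X-100 hosted 1.5 nM cruzain and test compound for 15 min at room temperature. Cleavage of 2 uM Z-FR-AMC was then tracked by fluorescence.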
SARS PLP yeast – qHTS of Yeast-based Assay for SARS-CoV PLP; 330,000 compounds, 0.19% hits; S. cerevisiae expressing SARS-CoV PLpro, growth rescue; control for the full effect not named in the record; Potency, µM (doses to about 32.9 µM), without a hit: at the highest dose activity, positive = growth rescue; AID 485353, 2010; active means well fitted rising curve with a large enough effect; inconclusive means small, poorly fitted or top-dose-only effect; inactive means no such curve, though single readings can be large or run the other way; further: 0% is about no effect; nearly all actives have a fitted effect of over 55% in size; growth read by luminescence after 48 h
NS1 function inh – qHTS Assay for Inhibitors of Influenza NS1 Protein Function; S. cerevisiae slowed by influenza A NS1, growth recovery by OD600; Potency, µM (highest dose often 46.1 µM), without a hit: at the top dose activity, positive = more growth; 270,000 compounds, 0.4% hits; AID 2326, 2010; active means well fitted rising curve with a large enough effect; inconclusive means small, poorly fitted or top-dose-only effect; inactive means no such curve, though single readings can be large or run the other way; further: nearly all actives have a fitted effect of over 50% in size
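S. cerevisiae expressing influenza A NS1, grown in glucose, washed, then diluted 1:100 into pH 6.0 -URA galactose medium with 23 nl compound. Growth recovery read as OD600; NS1-free strain serves as control.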
Cruzain inh noDet – qHTS Assay for Promiscuous and Specific Inhibitors of Cruzain (without detergent); AID 1476, 2009; Cruzipain (Trypanosoma cruzi), P25779; purified cruzain, Z-FR-AMC fluorescence, no detergent; Potency, µM, without a hit: max response, negative = inhibition, most hits filed as inhibitors; 200,000 compounds, 2.3% hits;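 further: plate controls were enzyme without inhibitor for no effect and buffer without enzyme for full effect; nearly all actives have a fitted effect of over 40% in size; top concentration of the series not given in the record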
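Detergent-free condition (0.00005% Triton X-100) in acetate buffer pH 5.5 with DTT. 1.5 nM enzyme and compound were pre-mixed 15 min, then 2 uM Z-FR-AMC substrate added; reaction progress from fluorescence change between first and third reads (60 s).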
LASV entry inh – qHTS for Inhibitors of binding or entry into cells for Lassa Virus; Potency, µM (highest dose often 37.9 µM), for inactives: at the highest dose activity change, negative = inhibition, usual class: inhibitors; 300,000 compounds, 1.2% hits; Lassa virus pseudotype entry inhibition, cell reporter; control for the full effect not named in the record; active means well fitted inhibition curve with a large enough effect; inconclusive means small, poorly fitted or top-dose-only effect, or effect the other way; inactive means flat fitted curve, though single readings scatter; tested in HEK293 cells; further: on the % scale 0 is the no-effect control and ±100 the full control effect; nearly all actives have a fitted effect of over 50% in size; luciferase read-out
StopGo reporter – High Throughput Screening for Foot and Mouth Disease Virus Antivirals. human cells with a luciferase reporter of 2A StopGo recoding; control for the full effect not named in the record. Potency, µM (top dose mostly 57.9 µM), inactives show at the top dose signal change, negative = less light. 410,000 compounds, 1.2% hits. AID 1159524, 2015; active = well fitted falling curve with a large enough effect; inconclusive = small, poorly fitted or top-dose-only effect; inactive = no such curve, though single readings can be large or run the other way; tested in HEK293T cells; further: on the % scale 0 is the no-effect control and ±100 the full control effect; nearly all actives have a fitted effect of over 45% in size; luciferase light after 4 h
RE007 growth inh – qHTS Assay for Inhibitors of the HIV-1 protein Vpr. Potency, µM (series often up to 92.2 µM), for the others: at the highest dose activity change, negative = less growth. S. pombe RE007 Vpr strain, BacTiter-Glo ATP luminescence, 24 h; control for the full effect not named in the record. 360,000 compounds, 0.21% hits; active = well fitted falling curve with a large enough effect; inconclusive = small, poorly fitted or top-dose-only effect; inactive = no such curve, though single readings can be large or run the other way;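 further: on the % scale 0 is the no-effect control and ±100 the full control effect; nearly all actives have a fitted effect of over 50% in size; the assay follows cell death caused by Vpr and the record does not say whether a fall means rescue or toxicity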
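Fission yeast strain RE007, carrying one chromosomally integrated HIV-1 vpr copy, was seeded at OD 0.01 in PMG+AL medium with 23 nL pinned compound. After 24 h at 30 °C and 99% humidity, viability was read by BacTiter-Glo luminescence.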
* marks the source's active call; other numbers are inactive results; u = inconclusive; x = no result given; & = joins results of further samples; [ ] = dose if it differs, or a comment. Unless noted, the call rests on the fitted dose curve; in most records, active means well fitted curve in the direction sought with a large enough effect; inconclusive means small, poorly fitted or top-dose-only effect, or another doubt; inactive means no such curve, though single readings can be large; an effect the other way counts as inactive or inconclusive. Potency means the concentration at half of the fitted maximal effect. No enrichment for hits. Share with any hit: about 4.6%.

SMILES	MARV entry inh	Cruzain inh Det	SARS PLP yeast	NS1 function inh	Cruzain inh noDet	LASV entry inh	StopGo reporter	RE007 growth inh
O=S(=O)(CCSc1nc2ccccc2o1)c1nc2ccccc2s1	u	4.9%	-33%	0%	-14%	u	16µM*	-10%
COc1ccccc1NC(=O)c1c(NC(=O)c2cccs2)sc2c1CCC(C(C)(C)C)C2 (stereo not given)	5%[46.1 µM]	-0.1%	x	x	-2%	-3%[46.1 µM]	-4%	x
Cc1c(NCc2cc(Cl)ccc2O)c(=O)n(-c2ccccc2)n1C	10%	0.0%	2%	29%	-1%	-5%	-8%	4%
COC(=O)c1ccccc1NC(=O)C1CC(=O)N(c2ccc(F)cc2)C1 (stereo not given)	-10%	0.0%	6%	-4%	-2%	-13%	0%	-3%
COCCN(C(=O)CSCC(=O)Nc1ccc(C)cc1)c1c(N)n(CC(C)C)c(=O)[nH]c1=O	26%	x	1%	x	x	23%	-12%	-4%
O=C(NNC(=O)C(O)(c1ccccc1)c1ccccc1)C1CC1	14%	x	2%	6%	x	1%	-15%	0%
CCN1CCN(C(=O)CCN2C(=O)c3ccccc3C2=O)CC1	u	x	1%	x	x	-12%	0%	-12%
Cc1ccc(C(=O)O)cc1S(=O)(=O)N1CCC(C(=O)O)CC1	14%	4.3%	-6%	2%	-9%	27%	13%	16%
CC1(C2CC2)NC(=O)N(CC(=O)Nc2ccc(SC(F)F)cc2)C1=O (stereo not given)	0%[46.1 µM]	x	0%	x	x	-25%[46.1 µM]	4%	-4%
CCNc1nc(NC(C)C)nc(N(C)C#N)n1	x	x	0%	2%	x	x	-15%	-7%
Cc1nc2nc(-c3ccco3)[nH]n2c(=O)c1Cc1ccccc1	u	3.3%	2%	-3%	2%	0%	0%	12%
CCOc1ccc(NS(=O)(=O)c2cc3c4c(c2)CCN4C(=O)CC3)cc1	u	x	11%	x	x	u	6%	-10%

3 records drawn at random from those above:
SMILES	MARV entry inh	Cruzain inh Det	SARS PLP yeast	NS1 function inh	Cruzain inh noDet	LASV entry inh	StopGo reporter	RE007 growth inh
O=S(=O)(CCSc1nc2ccccc2o1)c1nc2ccccc2s1	u	4.9%	-33%	0%	-14%	u	16µM*	-10%
Cc1ccc(C(=O)O)cc1S(=O)(=O)N1CCC(C(=O)O)CC1	14%	4.3%	-6%	2%	-9%	27%	13%	16%
CCN1CCN(C(=O)CCN2C(=O)c3ccccc3C2=O)CC1	u	x	1%	x	x	-12%	0%	-12%

Additional results follow:
SMILES	MARV entry inh	Cruzain inh Det	SARS PLP yeast	NS1 function inh	Cruzain inh noDet	LASV entry inh	StopGo reporter	RE007 growth inh
Cc1cccc(Nc2cc(=O)[nH]c(=O)[nH]2)c1	-2%	-2.6%	5%	13%	10%	2%	-19%	4%
O=C(COC(=O)C1CC2CCCC(C1)C2=O)NC1CCCCC1 (stereo not given)	-4%	x	0%	x	x	x	-7%	3%
CCOc1ccc2c(c1)c(N=NC(N)=S)c(O)n2C	x	x	0%	-4%	x	x	-15%	-2%
CCCCc1nnc(SCCSc2nnc(CCCC)n2N)n1N	3%	5.4%	9%	-5%	-5%	0%	1%	14%
CCn1c(=O)n(-c2ccc(Cl)cc2)c(=O)c2c3c(sc21)COC(C)(C)C3	14%	4.9%	-3%	-1%	-6%	9%	14%	-3%
Oc1ccc(/C=N/N(Cc2ccccc2)c2ccccc2)cc1	u	x	-33%	x	x	-26%	u	u
C[C@@H]1CC2OC(=O)[C@@]3(C)C(=O)CC[C@@](C)(C23)[C@@]1(O)CCc1ccoc1 (stereo not given in full)	u	x	1%	1%	x	-21%[46.1 µM]	-27%	-5%
Cn1c(=O)c2c(nc(NCCNC(=O)c3ccco3)n2Cc2ccc(Cl)cc2Cl)n(C)c1=O	-5%&-17%	1.1%	-9%	2%	3%	u	14%	13%
CCN1C(=O)[C@H]2[C@@H](c3ccc(C)cc3)N3C(=O)N(c4cccc(F)c4)C(=O)[C@@]3(CC)[C@H]2C1=O	x	x	6%	-1%	x	x	-12%	-18%
CC(OC(=O)CN1C(=O)NC(C)(C)C1=O)C(=O)c1ccccc1 (stereo not given)	u	2.9%	6%	6%	-8%	5%	13%	0%
CCOC(=O)C1CCN(c2c(NCc3ccc(C(=O)Nc4ccc(C)cc4)cc3)c(=O)c2=O)CC1	x	x	0%	-30%	x	x	-1%	13%
COc1ccc(-c2c(O)c(C#N)c(-c3ccccc3)n(-c3ccc(OC)cc3)c2=O)cc1	u	-2.7%	14%	18%	8%	2%	1%	-1%
O=C(CSc1nnc(Cc2ccccc2)n1-c1ccccc1)NNC(=O)Cc1ccccc1	0%	4.7%	0%	-1%	-5%	6%	-12%	-4%
COc1ccc(F)cc1S(=O)(=O)N1CC(C)CC(C)C1 (stereo not given)	u	2.3%	-3%	-1%	-6%	30%	-3%	-6%
O=C1C2=C(Nc3ccccc3SC2c2ccccc2C(F)(F)F)c2ccccc21 (stereo not given)	u	-7.8%	x	x	u	-13%[46.1 µM]	-1%	x
COc1cc(NC(=O)C2CCCN(S(=O)(=O)c3ccc4c(c3)oc(=O)n4C)C2)c(C(=O)O)cc1OC (stereo not given)	-3%[46.1 µM]	-0.8%	x	x	12%	19%[46.1 µM]	0%	x
Cn1c(=O)cc(SCC(=O)N2CCC3(CC2)OCCO3)c2ccc(Cl)cc21	-26%[46.1 µM]	-5.1%	22%	-2%	u	8%	12%	-1%
Cc1ccc(S(=O)(=O)NC(C)C(=O)N2CCOCCOCCOCCOCC2)cc1 (stereo not given)	-13%[46.1 µM]	x	3%	2%	x	x	4%	-1%
O=C(Cn1c(=O)n(Cc2ccco2)c(=O)c2ccccc21)NCC1CCCO1 (stereo not given)	1%[46.1 µM]	3.6%	3%	-4%	-1%	-9%	-6%	-1%
O=S(=O)(/N=C(/Nc1nc2ccccc2s1)c1ccccc1)c1ccc(F)cc1	u	x	-1%	x	x	14%	32%[activator]	-12%
Cc1cc(C)n(CCc2nc(-c3ccco3)cs2)n1	12%	-11%	5%	7%	-2%	-11%	1%	-19%
Cc1c(-c2cccc(NC(=O)Nc3ccc(Cl)cc3)c2)nc2ncccn12	x	-1.2%	x	x	12%	-22%[46.1 µM]	-19%	x
CC(=O)N(C1=NCCCS1)c1ccccc1F	-14%	-2.5%	-1%	-6%	0%	30%[14.3 µM]	-14%	6%
CC(=O)c1c(O)n(C2CCCCCC2)c(=O)[nH]c1=O	1%	5.2%	-6%	-85%	3%	27%	-2%	1%
COc1cc(Cl)c(C)cc1NC(=O)CCCN1C(=O)C(c2ccccc2)Oc2cccnc21 (stereo not given)	x	-4.2%	x	x	-2%	4%[46.1 µM]	-28%	x
COc1cccc(Nc2nc(C)nc3c2oc2ccccc23)c1	u	x	-4%	-4%	x	25%[46.1 µM]	-25%	2%
O=C(Cn1cccc1)Nc1ccc(OC(F)(F)F)cc1	16%	-1.9%	1%	-45%	-3%	48%[14.3 µM]	0%	-4%
O=C1CC(c2cccs2)Cc2nc(NCC3CCCO3)ncc21 (stereo not given)	0%	-2.0%	9%	-5%	-8%	u	9%	1%
O=C(NCc1ccc(Cl)cc1)c1ccc(OCC2CCCO2)cc1 (stereo not given)	-2%	-2.7%	-7%	1%	-11%	-1%	17%	5%
O=C(Nc1ccc(-c2nc3cc(Cl)ccc3o2)cc1)C1CCCO1 (stereo not given)	u	-18%	11%	3%[9.22 µM]	-16%	u	60%[activator]	-5%
O=C(CNc1ccc(F)cc1)N/N=C/c1c(O)ccc2ccccc12	x	x	11%	1%	x	x	10%	-10%
Cc1ccc(-c2noc(CCC(=O)NCC3CCCO3)n2)cc1 (stereo not given)	1%	3.2%	-8%	-12%	1%	10%	-5%	-28%
COc1ccccc1CNC(=O)c1ccc2c(c1)N(Cc1cccc(C)c1)C(=O)c1ccccc1S2(=O)=O	u	1.9%	x	x	u	u	-7%	x
COc1ccc(Nc2ccc([N+](=O)[O-])cn2)cc1	7%	x	0%	-23%	x	13%	63%[activator]	-2%
COC(=O)CCCNC(=O)c1ccc2nc(Cc3ccc(OC)cc3)oc2c1	x	x	-3%	-17%	x	x	28%	15%
Nc1ccc(Nc2ccccc2)c(S(=O)(=O)O)c1	-19%&-19%[46.1 µM]	x	-1%	4%	x	0%	-6%	-9%
O=C(c1cccc(C(F)(F)F)c1)N1CCC(O)(CS(=O)(=O)Cc2ccccc2)CC1	5%	4.8%	-2%	3%	2%	-3%	-2%	0%[3.69 µM]
COc1ccccc1OCc1ccc(C(=O)N2CCOCC2)o1	-2%	-4.1%	2%	-8%	-2%	-1%	-18%	-10%
CCOC(=O)c1ccc(N/C=C2\CCCCC2=O)cc1	-27%	-10%	-2%	-10%	-4%	u	0%	-1%
O=C(CSc1nnc(C2CC2)n1Cc1ccco1)NCC(F)(F)F	0%[46.1 µM]	x	3%	x	x	20%[46.1 µM]	24%	-14%
C/C(=N\NC(=O)C(O)(c1ccccc1)c1ccccc1)c1ccc(NC(=O)CCCC(=O)O)cc1	0%[46.1 µM]	x	0%	1%	x	3%[46.1 µM]	1%	0%
CCOC(=O)C1=C(C)N=c2s/c(=C\C(=O)OC)c(=O)n2C1c1ccc(OC)cc1 (stereo not given)	0%	-8.3%	-5%	5%	u	1%	u	10%
Cc1cc(C(=O)Nc2ccccc2N2CCCCC2)no1	-32%	x	-1%	-13%	x	-4%	u	5%
CCOc1ccc2nc(SCC(=O)NCc3ccc4c(c3)OCO4)[nH]c2c1	9%	-0.9%	0%	10%	-12%	-11%	-19%	12%
CCc1cc2c(SCC(=O)O)ncnc2s1	1%	0.0%	2%	9%	-8%	-4%	1%	-6%

Source: PubChem (National Center for Advancing Translational Sciences (NCATS))
